H5N1 CPE = MDCK cell protection from H5N1 avian flu; cytopathic effect, luminescence, 72 h; stronger effect = higher value; no value below 0 was filed and about half of the inactive calls have no number; reference of the scale not given here; inhibition, % at 50 µM; hit rate 0.07% among 96,000; AID 740; in the data active = inhibition above about 25%
An asterisk follows results filed as active; i = inactive. An excerpt, so the mix of outcomes need not match the whole.

SMILES	H5N1 CPE
O=C(O)C1CCCCC1C(=O)NCCCN1CCOCC1 (configuration not stated)	0.9
COC(=O)CNc1nc(-c2ccccc2F)nc2ccccc12	0.6
O=S(=O)(c1ccc2c(c1)OCCO2)N1CCN(Cc2ccc3c(c2)OCO3)CC1	i
COc1ccc(OC)c(-n2c(SCC(N)=O)nnc2-c2c[nH]c3ccccc23)c1	1.0
CN(C)CCSc1nnc(-c2ccccc2)o1	i
Brc1ccc(/C=N/Nc2ncnc3c2cnn3Cc2ccccc2)cc1	1.3
CC(=O)Nc1ccc(S(=O)(=O)NNC(=O)c2cccc3ccccc23)cc1	i
O=c1c2ccccc2nc(-c2ccc(-c3ccccc3)cc2)n1-c1ccncc1	2.3
CC(C)(C)C(=O)Nc1cccc(C(=O)c2cccc(NC(=O)C(C)(C)C)c2)c1	0.2
Cc1cc(C)cc(N2C(=O)CC(N3CCOCC3)C2=O)c1 (configuration not stated)	1.2
Cn1c(NC(=O)c2ccco2)c(-c2ccccc2)c(=O)c2ccccc21	1.5
CCOC(=O)c1c(-c2ccccc2)csc1NC(=O)c1nn(CC)cc1Br	i
COc1ccc(CC(=O)Nc2ccc(-c3noc(-c4ccccc4OC)n3)cc2)cc1	i
Cc1ccc(C)c(C2=CSC3=NCCN23)c1	0.7
CCc1nnc(NC(=O)OCc2ccccc2)s1	i
Cc1cccc(-n2nnnc2SCC(=O)c2cc(C)n(Cc3ccco3)c2C)c1	i
CC1(C)NC(=O)N(CCOCCOc2ccccc2)C1=O	0.5
COc1ccc(C)cc1NC(=O)CN(Cc1nnc(-c2ccc(Cl)cc2)o1)C1CCCC1	i
CCN(CC)CCCNC(=O)c1ccccc1C	0.2
O=C(Oc1ccc2cccc(OC(=O)N3CCOCC3)c2c1)N1CCOCC1	1.0
CCN1CCN(C(=S)c2ccc(Cl)cc2)CC1	1.1
CN(C)P(=NC(=S)c1cccn1C)(N(C)C)N(C)C	0.8
N#Cc1ccc(CSc2nnc(Nc3ccccc3)s2)cc1	i
O=c1oc2c3c4c(cc2c2c1CCC2)OCCN4CCC3	0.6
COc1ccc(CN2CCN(C(=O)C3CC(=O)N(C4CCCCCC4)C3)CC2)c(OC)c1OC (configuration not stated)	2.1
CC1CCc2sc3nc(NCc4ccco4)n4ncnc4c3c2C1 (configuration not stated)	i
CCCC(=NCc1ccccc1)C1=C(O)C(C(=O)OC)C(C)(C)CC1=O (configuration not stated)	1.0
O=C1NC(=S)NC(=O)C1C/C=C/c1ccccc1	i
COc1ccc(-c2nc3nc(C)cc(=O)n3[nH]2)cc1	i
Cc1nn(C)cc1CNC(=O)Nc1cccc(Cl)c1	i
Cc1ccc2oc3nc(C)c(C(=O)Nc4cccc(C(F)(F)F)c4)cc3c(=O)c2c1	i
c1ccc(-n2c(SCc3ccncc3)nnc2-c2ccco2)cc1	1.8
Cc1ccccc1OCc1nnc(SCC(=O)Nc2ccc(N3CCOCC3)c(Cl)c2)n1C	1.1
CN(C)c1nc2n(c(=O)n1)CCS2	0.0
O=c1[nH]c(=O)n(Cc2ccccc2)c2c1C(C(F)(F)F)(C(F)(F)F)N=C(c1ccco1)N2	0.3
Cc1cccc(C)c1OCc1nnc(SCC(=O)NCc2ccccc2)o1	i
CCOC(=O)N1CCC(NC(=O)c2cccc3c2C(=O)N(Cc2cccnc2)C3)CC1	1.4
CC1(C)CC(=O)N(CC(=O)N2CCN(c3ncccn3)CC2)c2ccccc2S1(=O)=O	0.4
O=C(NCCCNCc1ccccc1)/C(=N\O)c1ccccc1	0.1
COC(=O)C(CCCCN1C(=O)C2C3C=CC(C3)C2C1=O)N1C(=O)C2C3C=CC(C3)C2C1=O (configuration not stated)	0.3
CC(C)OC(=O)C1=C2SCC(=O)N2C(N)=C(C#N)C1	i
O=C(NCCCn1ccnc1)C(Cc1ccccc1)N1C(=O)c2ccccc2C1=O (configuration not stated)	0.9
COc1ccc2oc(=O)c(C(=O)N3CCCc4ccccc43)cc2c1	0.6
Cc1cc(C(=O)CSc2nnc(-c3ccncc3)n2-c2ccccc2)c(C)n1C	2.7
CCOC(=O)c1[nH]c2ccccc2c1NC(=O)Nc1ccc(OC)cc1	i

Some of the entries above in a different format:
SMILES: O=c1c2ccccc2nc(-c2ccc(-c3ccccc3)cc2)n1-c1ccncc1
  H5N1 CPE: 2.3
SMILES: O=c1oc2c3c4c(cc2c2c1CCC2)OCCN4CCC3
  H5N1 CPE: 0.6

Further results:
SMILES	H5N1 CPE
CCOc1ccc(NC(=O)C(C)Oc2ccccc2C(=O)Nc2ccc(C)c(Cl)c2)cc1 (configuration not stated)	6.5
O=C(NC(Cc1c[nH]c2ccccc12)c1nnc2n1CCCCC2)c1ccc(Cl)cc1 (configuration not stated)	i
CN(C(=O)c1ccc(-c2nn(C)c(=O)c3ccccc23)cc1)c1ccccc1	1.9
N#Cc1nc(Cc2cccc3ccccc23)oc1N1CCOCC1	2.9
CCCOC(=O)c1ccc(NC(=O)COC)cc1	0.2
COC(=O)c1ccccc1OCC(=O)N1CCN(c2ccc(Cl)cc2)CC1	i
OC(c1ccc(F)cc1)(c1ccc(F)cc1)[C@@H]1CCCN1	i
CCOc1ccc(-c2cc3nc(C4CCN(C(=O)OC(C)(C)C)CC4)c(C(=O)O)cn3n2)cc1	i
COCCn1c(SCC(=O)N2CCCCC2)nc2cccnc21	0.7
CCOc1ccc(OCC)c(NC(=O)CCn2c(=O)oc3ccccc32)c1	0.6
CCNC(=O)Nn1c(C)nnc1C	2.0
O=C(CC1=NC2(CCCC2)Cc2ccccc21)N1CCOCC1	0.9
CCCCNC(=O)Nc1nnc(-c2ccc(Cl)cc2)o1	i
Cc1cc(N2CCOCC2)nc2ccc(NC(=O)CCC(=O)N3CCCC(C)C3)cc12 (configuration not stated)	1.6
CCc1cccc(CC)c1NC(=O)CN1CCN(c2ccccc2)CC1	0.2
Cc1cc[n+](CCC(=O)O)c2ccccc12	0.5
CC1CCN(C2=NC(=O)/C(=C/c3cn(-c4ccccc4)nc3-c3cccc(S(=O)(=O)N(C)C)c3)S2)CC1	i
COc1ccc(-c2nc(=S)[nH][nH]2)cc1	0.2
CCC(c1nnc(SCC(=O)N2CC(=O)Nc3ccccc32)n1Cc1ccccc1)N(C)C (configuration not stated)	0.6
CC(C)c1nnc(NC(=O)C2CCCCC2)s1	i
Clc1ccccc1OCc1nc(-c2ccccn2)no1	i
O=C(Cc1ccccc1)NC(NCCc1ccccc1)C(Cl)(Cl)Cl (configuration not stated)	i
COc1cccc(C(=O)CN2C(=O)C(C)(C)Oc3ccc(C(=O)N4CCCCCC4)cc32)c1	i
CCOc1cc(C(=O)CCC(=O)OCC(=O)N2c3ccccc3NC(=O)C2(C)C)ccc1O	i
CCCCNc1c2c3c(cccc3n(C)c1=O)C(=O)c1ccccc1-2	5.1
C=CCNC(=O)c1cc2nc(C3CC3)cc(C(F)F)n2n1	1.0
Cc1ccc(Oc2coc3cc(OC(=O)c4cccs4)ccc3c2=O)cc1	i
CC(C)=CC(=O)OCC(=O)Nc1ncc(Cl)c(C)c1Cl	0.8
COc1ccc(C(c2sc3nc(C)nn3c2O)N2CC(C)OC(C)C2)cc1OC (configuration not stated)	1.7
COc1cccc(NC(=O)C(=O)N/N=C/c2cc(C)n(-c3ccc(Cl)c(Cl)c3)c2C)c1	i
CC1CCN(S(=O)(=O)c2ccc(NC(=S)NC(=O)c3ccc(Cl)cc3)cc2)CC1	i
C#CCNc1c(C)c(C)nc2ncnn12	0.2
CCC(=O)N1c2ccc(S(=O)(=O)N(CCO)Cc3ccccc3)cc2CC1C (configuration not stated)	0.6
O=C(CSc1nc2ccccc2c(=O)n1NC(=O)c1ccccc1)c1ccccc1	i
Clc1ccc(-c2nc3ncccn3c2Nc2ccc3c(c2)OCCO3)cc1	i
COc1ccc(Nc2ccccc2)c(C)c1	i
CC1(C)C(=O)Nc2ccccc2N1C(=O)COc1ccc(S(=O)(=O)N2CCOCC2)cc1Cl	5.9
CC(C)(C)N(NC(=O)Nc1ccccc1)C(=O)c1ccccc1Cl	i
CS(=O)(=O)N1CCN(c2ccccc2NC(=O)c2cccnc2Cl)CC1	i
O=C(CSCc1ccccc1Cl)NNC(=S)Nc1ccccc1	i
CCOC(=O)N1CCC(NC(=O)c2ccc(CS(=O)(=O)c3ccccc3C)o2)CC1	0.8
O=C(CCc1ccccc1)Nc1cc(C(F)(F)F)ccc1Cl	i
CN(C)S(=O)(=O)n1ccnc1	i
COc1ccc(C2N(c3ccccn3)C(=O)C3CCCN32)c(OC)c1 (configuration not stated)	i
CC(C)OCCCNc1ncnc2c1[nH]c1ccc(F)cc12	i

Quoted at random: six compounds from above.
SMILES	H5N1 CPE
CCOC(=O)c1c(-c2ccccc2)csc1NC(=O)c1nn(CC)cc1Br	i
CC(C)(C)C(=O)Nc1cccc(C(=O)c2cccc(NC(=O)C(C)(C)C)c2)c1	0.2
O=C(Oc1ccc2cccc(OC(=O)N3CCOCC3)c2c1)N1CCOCC1	1.0
CCOc1ccc(-c2cc3nc(C4CCN(C(=O)OC(C)(C)C)CC4)c(C(=O)O)cn3n2)cc1	i
CCCOC(=O)c1ccc(NC(=O)COC)cc1	0.2
CCN1CCN(C(=S)c2ccc(Cl)cc2)CC1	1.1

Other entries.
SMILES	H5N1 CPE
CC(C)Cc1nc(S(=O)(=O)c2ccc(Cl)cc2)c(N2CCOCC2)o1	0.1
COC(=O)C(Cc1cnc(Cl)s1)(C(=O)OC)c1ccc(C(F)(F)F)cc1[N+](=O)[O-]	i
CCOC(=O)Cn1nnnc1C(CC)N(Cc1cc2ccc(C)cc2[nH]c1=O)C1CCCC1 (configuration not stated)	1.1
CCOc1ccccc1NC(=O)CCN1CCN(S(=O)(=O)c2ccc(OC)cc2)CC1	i
Cc1ccc2cc(CCNC(=O)CC(C)(C)C)c(=O)[nH]c2c1C	i
O=C(Cn1c(=O)oc2cc(S(=O)(=O)N3CCCC3)ccc21)NCc1ccccn1	2.2
CCOc1ccc(C(CCc2ccccc2)NC(=O)c2ccccc2)cc1OCC (configuration not stated)	0.5
Cc1nc(C)c(C(=O)Nc2ccccc2-c2ccccc2)o1	0.0
COc1ccc(OC)c(-c2nnc(-c3ccc(C)o3)o2)c1	0.6
CC(C)(C)c1cc2cccnc2n1Cc1cccc(Cl)c1	i
COc1cccc(-n2c(Cc3cc(=O)[nH]c(=O)[nH]3)nnc2SCC(=O)NC2CCCCC2)c1	0.2
CCOC(=O)CSc1nnc(-c2ccco2)n1-c1ccccc1	0.3
CCCCC(=O)Nc1ccnc(-c2cccnc2)n1	0.3
Cc1ccc(NC(=O)c2ccc(CSc3nnc(-c4ccncc4)n3C)cc2)cc1	0.2
O=C(CSc1nnc(-c2ccc(Br)o2)n1Cc1ccccc1)c1ccccc1F	i

Structures from the list above containing two or more sulfur atoms, in the order listed:
SMILES	H5N1 CPE
N#Cc1ccc(CSc2nnc(Nc3ccccc3)s2)cc1	i
CC1CCN(C2=NC(=O)/C(=C/c3cn(-c4ccccc4)nc3-c3cccc(S(=O)(=O)N(C)C)c3)S2)CC1	i
CC1CCN(S(=O)(=O)c2ccc(NC(=S)NC(=O)c3ccc(Cl)cc3)cc2)CC1	i
O=C(CSCc1ccccc1Cl)NNC(=S)Nc1ccccc1	i

(more compounds)
SMILES	H5N1 CPE
COCCn1c(=O)[nH]c2cc(C(=O)NCc3cccnc3)ccc2c1=O	1.2
C=CC(O)Cc1c(C)n[nH]c1C (configuration not stated)	0.5
O=C(CSc1ccccc1)NCCCN1CCOCC1	i
CCOC(=O)N1CCN(C(=S)NCCOC)CC1	0.5
CC(C)CNC(=O)NC(=O)CSc1nc2ccccc2n1CC(C)C	i
Cn1c(CCNC(=O)c2ccccc2)nc2cc(NC(=O)c3ccco3)ccc21	1.0
c1cc2c(cc1CN1CCOCC1)OCO2	0.2
Cc1ccc(NC(=O)CSC(N)=O)cc1Cl	i
CCn1cc(S(=O)(=O)CC(=O)Nc2cc(C)on2)c2ccccc21	i
Cc1ccc(CSc2nnc(-c3ccccc3N)c(=O)[nH]2)cc1	i
Cc1csc(NC(=O)C2COc3ccccc3O2)n1 (configuration not stated)	i
CCN1CCc2nc(NC(=O)CC(c3ccccc3)c3ccccc3)sc2C1	i
Cc1ccc(CCNC(=O)Cn2cccc2)cc1	1.2
CC(C)COC(=O)C1[C@H]2C(=O)N(Cc3cccs3)C[C@]23C=C[C@H]1O3 (some centres not stated)	i
CCOCCC(=O)Nc1cc(Cl)ccc1OC	1.1
O=C(NN1C(=O)C2C3C=CC(C4CC34)C2C1=O)c1ccc(Cl)cc1Cl (configuration not stated)	i
O=C(CCC(=O)c1cccs1)NC(c1ccccc1)c1ccccc1	i
COc1cccc(OCCCCSc2ncccn2)c1	0.3
Cn1c(=O)n(C)c2cc(CN3C(=O)OC(C)(C)C3(C)O)ccc21 (configuration not stated)	i
Oc1ccc(Nc2nc(NCC3CCCO3)c3ccccc3n2)cc1 (configuration not stated)	i
O=C(CCSc1nnc2ccccn12)Nc1ccc(F)cc1	i
COc1ccc(N(C(=O)c2ccccc2OC)C2C=CS(=O)(=O)C2)c(OC)c1 (configuration not stated)	0.4
CCn1nnnc1SCC(=O)c1cccc(OC)c1	i
Cc1cc(C(=O)N2CCc3ccccc32)c2ccccc2n1	0.2
CCCn1c(=O)[nH]c(=O)c2c1nc(-c1ccc3c(c1)OCCO3)n2CCN1CCOCC1	0.7
C=CCN(C(=O)Cn1ncc2c1-c1cc(C)ccc1OC2)c1ccccc1	2.4
CCC1(CC)NC(=S)N(Nc2ccccc2)C1=O	0.6
O=C1c2ccccc2C(=O)C1c1ccncc1	i
Cc1cc(Cl)ccc1NC(=S)NCc1ccccc1	0.6
COc1ccc(N2CCN(c3oc(COc4ccc(Cl)cc4)nc3C#N)CC2)cc1	4.7
COc1ccc(CCNC(=O)c2ccc3c(=O)n(Cc4ccco4)c(=S)[nH]c3c2)cc1OC	i
O=C(Nc1ccccc1)c1cccc(-c2nnc(-c3ccccc3)o2)c1	i
O=S(=O)(Cc1ccc(Cl)cc1)N1CCN(Cc2ccccc2)CC1	i
O=C(NCc1ccco1)C1CCCN(S(=O)(=O)c2cnc[nH]2)C1 (configuration not stated)	i
Cc1ccccc1Nc1nc(N)nc(COC(=O)CCS(=O)(=O)c2ccccc2)n1	0.3

Compound activity: PubChem, SRMLSC
